NPYLR7 agonist = agonists of mosquito NPYLR7 receptor, primary screen, cell-based, Aedes aegypti, calcium fluorescence, mosquito biting behavior; Aedes aegypti neuropeptide Y-like receptor 7 (NPYLR7); hit rate 0.15% among 270,000; activation, % at 10 µM; HEK293T NPYLR7/Galpha15, GCaMP6s calcium fluorescence; in the data active = activation above about 40%;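 note: 0% = vehicle and 100% = reference agonist at the receptor; some compounds past the cut are filed as inactive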
NPYLR7 agonist max-min = further read-out of NPYLR7 agonist, marked with its call; activation, %; measured here: Max-Min RFU normalised activation; some inactives read as strong as hits;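 span of the calcium signal over five minutes; 0% = vehicle and 100% = native peptide agonist; compound fluorescence can raise it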
* = called active by the depositor; & = joins results of further samples.

smiles,NPYLR7 agonist,NPYLR7 agonist max-min
CCOCCCn1c(C)cn2c3c(=O)[nH]c(=O)n(C)c3nc12,11,7
CCOc1cc(C(=O)N2CCOC(COCc3cccc(C(F)(F)F)c3)C2)ccc1OC (configuration not stated),-4,8
CCOc1cc(/C=C2/SC(=Nc3ccccc3)NC2=O)ccc1O,0,-4
O=C(C1C=CCN1)N1CCC(Cc2nnc(CO)n2-c2ccccc2)CC1 (configuration not stated),14&-2,0&-2
Cc1ccc(O)c([C@H](CCN(C(C)C)C(C)C)c2ccccc2)c1,-13,-21
O=C(NCc1nc(-c2ccccc2)n[nH]1)c1cn(CC2CCCNC2)nn1 (configuration not stated),1,-2
CC(=O)N1c2ccccc2C(c2ccccc2)(c2ccccc2)OC1C (configuration not stated),0,-3
Fc1cccc2c1NC(c1ccccn1)C1CC=CC21 (configuration not stated),6,5
Cc1cc(C)n(CCCC(=O)N[C@@H]2C[C@@H](CO)N(C)C2)n1,1,-1
O=C(COc1ccccc1)Nc1ccc(N2CCCC2)cc1,8,5

Additional results follow.
smiles,NPYLR7 agonist,NPYLR7 agonist max-min
Cc1cc(C)c(CN2C(=O)NC(C)(c3ccc(S(C)(=O)=O)cc3)C2=O)c(C)c1 (configuration not stated),4,0
Cc1nccn1-c1cc(NCCNC(=O)/C=C/c2ccccc2)ncn1,-20,-19
COCC(c1ccccn1)N(C)CC(=O)Nc1ccc(C)c(C)c1 (configuration not stated),2,7
COc1ccc(-n2nnnc2CNC(=O)CCCc2ccccc2)cc1,19,13
COc1ccc(-c2nc3cc(C)ccn3c2NC(=O)c2ccc(Cl)c(Cl)c2)cc1,-8,-3
CCCn1c(N)c(C(=O)CSc2nnc(C3CC3)n2C2CC2)c(=O)n(C)c1=O,4,7
CC(=O)C1=C(c2ccc3c(c2)CCCC3)N(C(C)=O)n2c(nnc2-c2ccccc2)S1,7,4
CN1NC(c2ccccc2)C2C(=O)N(Cc3ccccc3)C(=O)C21 (configuration not stated),-11,-20
CN1CCN(C)C2(CCN(C(=O)c3ccc4cccnc4c3O)CC2)C1,14,0
Cc1ccc(NC(=O)CCN2CC3=C(C2=O)C(c2ccccc2Cl)NC(=O)N3C)cc1C (configuration not stated),0,8

Next part:
smiles,NPYLR7 agonist,NPYLR7 agonist max-min
CCCN(Cc1c(-c2ccccc2)noc1N1CCOCC1)CC(O)COCC(C)C (configuration not stated),-4,3
Cc1cc(NC(=O)/C=C/c2ccc(OCC#N)cc2)ccn1,0,34
O=c1oc2ccc(Br)cc2cc1-c1csc(NNc2ccccc2)n1,-2,-4
CCOC(=O)CNc1c(-c2cccc(F)c2)nc2ccc(Cl)cn12,2,11
O=S(=O)(c1ccc(F)cc1)N1CCCC(OCc2ccccc2Cl)C1 (configuration not stated),-7,-1
COc1cccc2cc(-c3nnc(-c4ccc(Cl)cc4)o3)c(=O)oc12,24,23
COc1ccc(S(=O)(=O)N2CCc3ccccc3C2)cc1N1CCN(S(=O)(=O)c2c(C)cc(C)cc2C)CC1,9,7
COc1ccc(-c2cnc3ncnn3c2N2CCN(C(=O)NCCc3ccccc3)CC2)cc1,15,7
O=C(NCCCC(=O)N1CCC2(CC1)C(=O)NCN2c1ccccc1)OCc1ccccc1,-9,-15
Cc1ccc(Cl)cc1N1CCN(CC(=O)NC(=O)NCc2ccccc2)CC1,6,6

Grouped by structure, those above containing a halogen
smiles,NPYLR7 agonist,NPYLR7 agonist max-min
CCOc1cc(C(=O)N2CCOC(COCc3cccc(C(F)(F)F)c3)C2)ccc1OC (configuration not stated),-4,8
Fc1cccc2c1NC(c1ccccn1)C1CC=CC21 (configuration not stated),6,5
COc1ccc(-c2nc3cc(C)ccn3c2NC(=O)c2ccc(Cl)c(Cl)c2)cc1,-8,-3
Cc1ccc(NC(=O)CCN2CC3=C(C2=O)C(c2ccccc2Cl)NC(=O)N3C)cc1C (configuration not stated),0,8
O=c1oc2ccc(Br)cc2cc1-c1csc(NNc2ccccc2)n1,-2,-4
CCOC(=O)CNc1c(-c2cccc(F)c2)nc2ccc(Cl)cn12,2,11
O=S(=O)(c1ccc(F)cc1)N1CCCC(OCc2ccccc2Cl)C1 (configuration not stated),-7,-1
COc1cccc2cc(-c3nnc(-c4ccc(Cl)cc4)o3)c(=O)oc12,24,23
Cc1ccc(Cl)cc1N1CCN(CC(=O)NC(=O)NCc2ccccc2)CC1,6,6

(continued)
smiles,NPYLR7 agonist,NPYLR7 agonist max-min
CC(C)Oc1ccc(S(=O)(=O)N2CCCCC2)cc1NCc1cccc(S(=O)(=O)N(C)C)c1,1,0
Cc1cc(C(=O)N2CCCC(CCC(=O)N(C)CCc3ccccn3)C2)c(C)o1 (configuration not stated),24,12
CCC(CC)(CNC(=O)CSCC(N)=O)c1ccc(Cl)cc1,-2,-7
COc1ccccc1N1CCN(c2ccc(N)cc2C(=O)NCCc2ccccc2)CC1,15,17
O=C(CCN1CCCO1)N1CCOc2c(O)cc(-c3cccnc3)cc2C1,2,0
Cc1noc(C(C)N(C)C(=O)c2coc(COc3cccc(F)c3F)n2)n1 (configuration not stated),0,-11
CC(CN1CCN(c2ccccc2)CC1)NC(=O)NCC(C)(C)O (configuration not stated),8,3
Cc1cc(S(=O)(=O)NCCCN2CCOCC2)c(C)cc1Cl,3,6
O=C(Nc1cccnc1N1CCCC1)c1cccc(C(F)(F)F)c1,5,4
COc1cccc(C(=O)N2CCCC(CO)(CCc3ccccc3)C2)c1 (configuration not stated),8,2

The list goes on:
smiles,NPYLR7 agonist,NPYLR7 agonist max-min
CCn1cc(C(CC(=O)N(CCC#N)Cc2cccnc2)c2ccc3c(c2)OCO3)c2ccccc21 (configuration not stated),13,18
CC(=O)Nc1ccc(S(=O)(=O)Nc2nn(Cc3ccc(Cl)cc3)cc2Br)cc1,-5,-8
CC=CCn1c(=O)c2c(nc3n2CCN3c2cc(C)ccc2OC)n(C)c1=O,-3,-1
CCCNC(=O)Nc1ccc(Cl)c(C(=O)O)c1,0,-1
O=C(CNC(=O)c1ccccc1F)OCc1cc(Cl)cc2c1OCOC2,6,4
Cc1cn(CCC#N)nc1C=Nc1ccc(O)cc1,0,-5
Cc1nc2ccccn2c(=O)c1NC(=O)C1CC1,4,3
CC1Oc2ccc(-c3cccc(F)c3)cc2N(Cc2ccc3ccccc3n2)C1=O (configuration not stated),-2,-3
Cc1nn2c(NCCOCCO)cc(C(C)(C)C)nc2c1-c1ccccc1Cl,1,8
O=C(Nc1cccc(N2CCCC2=O)c1)c1cc(F)ccc1F,1,1

The list goes on:
smiles,NPYLR7 agonist,NPYLR7 agonist max-min
CC1CCCCN1C(=O)CN1C(=O)NC(C)(c2ccc(Cl)cc2Cl)C1=O (configuration not stated),0,-3
Cc1ccc(-c2cn[nH]c2C2CCCN(C(=O)c3c[nH]c(=O)cn3)C2)cc1 (configuration not stated),3,-3
C=CCc1cccc2cc(C(=O)Nc3cccc([N+](=O)[O-])c3)c(=O)oc12,-4,-17
COc1cccc(C(=O)N2CCN(C(C(=O)N3CCSCC3)C3CCCC3)CC2)c1 (configuration not stated),-1,46
O=C(c1cc2ccccc2o1)c1nc2c(n1O)CCCCC2,2,1
CCCc1c(C)[nH]c2ccc(C(=O)O)cc2c1=S,-7,-3
Cc1cccc(N2CCn3c2nc2c3c(=O)n(CCN3CCCCC3)c(=O)n2C)c1C,25,28
COc1ccc2[nH]c3c(c2c1)CCN(C(=O)COc1ccc(C(C)(C)C)cc1)C3COCc1ccccc1 (configuration not stated),10,0
CN(Cc1ccc(Br)s1)CN1CC(c2cccc(F)c2)CC1=O (configuration not stated),-4,-6
Cc1ccc(C)c(Nc2nc(NCCc3ccccc3)nc3nccnc23)c1,5,4

Additional compounds follow.
smiles,NPYLR7 agonist,NPYLR7 agonist max-min
CN(C)c1cc(N2CCCC(Cc3ccccc3F)(C(=O)O)C2)ncn1 (configuration not stated),2,1
Cc1nc2c(c(=O)[nH]1)CCN(C(=O)Cn1nc3ccccc3n1)C2,9,4
Cc1ccccc1Cc1nc2c(c(=O)[nH]1)CN(C(=O)Cc1ccc(F)cc1)CC2,-2,7
CN(C)c1nc(Nc2ccc(F)cc2)nc(-n2cccn2)n1,5,3
CC1(C)CC(O)(C#CC#CC2(O)CC(C)(C)NC(C)(C)C2)CC(C)(C)N1,-2,-5
COCCC1(C(=O)NCC2(O)CCN(C)CC2)CCCC1,6,5
O=C1C2C3c4ccccc4C(c4ccccc43)C2C(=O)N1Nc1ccccc1 (configuration not stated),-5,-12
CSc1ccc(CN(C)Cn2nc(-c3cccs3)n(C)c2=S)cc1,10,7
CC(C)(O)C#Cc1ccc(CN2CCCC(CNC(=O)c3ccco3)C2)cc1 (configuration not stated),8,7
CC(C)CN(CC(=O)N(Cc1cccn1Cc1ccc(Br)cc1)C1CCCCC1)C(=O)C(C)(C)CCl,-4,9

Ordered by SMILES length (rising): 3 of the compounds above
smiles,NPYLR7 agonist,NPYLR7 agonist max-min
COCCC1(C(=O)NCC2(O)CCN(C)CC2)CCCC1,6,5
CC(C)(O)C#Cc1ccc(CN2CCCC(CNC(=O)c3ccco3)C2)cc1 (configuration not stated),8,7
CC1(C)CC(O)(C#CC#CC2(O)CC(C)(C)NC(C)(C)C2)CC(C)(C)N1,-2,-5

(list continues)
smiles,NPYLR7 agonist,NPYLR7 agonist max-min
COc1ccccc1CCNC(=O)C(C1CCCC1)N1CCN(C(=O)Nc2ccccc2)CC1 (configuration not stated),-8,-4
N=c1sc2c(n1CCCS(=O)(=O)O)CCCC2,4,2
CN1CC2(CCN(C(=O)c3cc(-c4ccccc4)nc4ccccc34)C2)OC1=O (configuration not stated),3,3
CN(CC1COc2ccccc2O1)C(=O)CCl (configuration not stated),-5,-11
COC(=O)C1=C(C)N(C)C(C)=C(C(=O)OC)C1c1ccc(OC)cc1,-3,-2
O=C(NCC1CN2CCCC2CO1)C1=NOC(c2ccccc2)C1 (configuration not stated),4,6
CC1CCCN(Cc2ccc(NC(=O)C3CC(=O)N(C4CCS(=O)(=O)C4)C3)cc2)C1 (configuration not stated),4,-1
Cc1cc(C(=O)N2CCCC(CCc3ccccc3C)C2)nc(C)n1 (configuration not stated),6,8
CC(C)c1ccc(-n2nnnc2SCC(=O)N(C)C)cc1,0,-1
CCOC(=O)C1=C(O)/C(=C\c2cccn2C)SC1=Nc1ccccc1F,10,6

Next part:
smiles,NPYLR7 agonist,NPYLR7 agonist max-min
COc1cn(CC(=O)NC(C)(C)C)c(CSc2ncccn2)cc1=O,-3,-4
CCN(Cc1cccc(OC)c1)C(=O)c1nc(N)n[nH]1,-2,-6
Cc1ccc(S(=O)(=O)N(C)c2c(C)ccc(S(=O)(=O)NC(C)C)c2C)cc1,-3,-4
CN(C)CCCNc1ncnc2c1oc1ccccc12,-2,-5
C[n+]1cn(Cc2cc(Cl)ccc2OC(F)F)c2ccccc21,-1,-3
COc1cccc(C(=O)N2CCN(c3cc(Cl)nc(SCC(=O)Nc4ccc(C)cc4)n3)CC2C)c1 (configuration not stated),14,13
O=C(NCCN1CCCC1)[C@@]1(OCc2ccccc2F)CC(OCc2cccc(Cl)c2)[C@H](O)[C@H](O)C1 (some centres not stated),-2,0
CC(C)(O)C#Cc1ccc(CN2CCC(c3ccncc3)CC2)s1,13,6
O=c1c2cnc3nc(-c4ccncc4)nn3c2ccn1CCc1ccccc1,4,4
S=c1[nH]nc(C2C3CCCCC32)n1-c1ccccc1 (configuration not stated),-20,-25

Next entries:
smiles,NPYLR7 agonist,NPYLR7 agonist max-min
COc1ccc(Cc2noc(/C=C/c3ccc(C)cc3)n2)cc1OC,10,7
COC(=O)c1ccc(NC(=O)Cn2nc([N+](=O)[O-])cc2C)cc1Br,-9,-11
Cc1ccc(F)c(NC(=O)CCC(=O)NC(CF)Cc2ccccc2)c1 (configuration not stated),12,1
CCOC(=O)c1nn(-c2ccccc2)c(=O)cc1OS(=O)(=O)c1ccc2c(c1)OCCO2,-2,1
CN(c1cnn(C)c(=O)c1Br)C1CCCC1,2,5
CC(=O)NCc1ccc(C(=O)Cn2ncc(Cl)c(Cl)c2=O)s1,0,-1
O=C1CCC(C(=O)N2CCCCO2)CN1CCc1ccccn1 (configuration not stated),7&3,5&-1
CCN1C[C@H]2CN(C)c3ccccc3[C@@H]2N(C(=O)c2cccc(OC)c2)CCC1=O,0,4
Cn1c(=O)c2c(ncn2CC(=O)Nc2nncs2)n(C)c1=O,5,3
O=C(O)CC1C(=O)NCCN1Cc1ccoc1 (configuration not stated),-1,-3

Other results follow:
smiles,NPYLR7 agonist,NPYLR7 agonist max-min
O=C(NCc1cccnc1Oc1ccc(F)c(F)c1)c1ccc2nc[nH]c2c1,2,2
COc1ccc(C(=O)NC(C(=O)NC2CC2)C2CCN(C(=O)c3cccc(F)c3)CC2)cc1 (configuration not stated),9,4
Cc1ccc(-c2ccc(S(C)(=O)=O)cc2)cn1,1,0
O=c1[nH]cnc2c1c(-c1ccccc1)cn2-c1ccc(F)cc1,-8,-11
CCOc1cc(/C=N\O)cc(I)c1OS(=O)(=O)c1ccc(C)cc1,3,3
O=C(O)c1cccnc1CN1CCN(C/C=C/c2ccccc2)CC1,-1,-3
Cc1cc(Cl)ccc1N1C(=O)/C(=C\c2ccco2)N(C)C1=S,6,2
COc1cc(C)ccc1Oc1cc(N2CCN(C(=O)c3cccs3)C(C)C2)ncn1 (configuration not stated),21,34
CCOc1ccc(CN(C)Cc2cc(Br)ccc2F)nc1,-1,-4
COc1cc(C=NN2CCN(Cc3ccc(C)cc3C)CC2)cc(OC)c1OC,-5,-7

(listing goes on)
smiles,NPYLR7 agonist,NPYLR7 agonist max-min
Cc1nnc(NC(=O)CSc2nc3ccccc3o2)s1,8,8
CN(C)c1cccc(C(=O)N2CC(=O)N3CCc4ccccc4C3C2)c1 (configuration not stated),-13,-1
CN(C)CCNC(=O)C1CCN(C2CCN(c3nc4ccccc4o3)CC2)CC1,-11,-13
CCOC(=O)C1=C(O)C(=O)N(c2ccccc2)C1,-5,-8

Some of the compounds tested (hit frequency here may not be typical).
